Compound activity from PubChem BioAssay.
H5N1 antiviral = MDCK cell protection from H5N1 avian flu | cytopathic effect, luminescence, 72 h; hits give high values; no value below 0 was filed and about half of the inactive calls have no number; reference of the scale not given here | inhibition, % at 50 µM | 96,000 tested, 0.07% active | AID 740, 2007; in the data active = inhibition above about 25%
Starred values were filed as active, the others as inactive; i = inactive. These rows are one share of the data; count on the stated rates, not on these rows.

SMILES	H5N1 antiviral
CCOC(=O)C1=C(C)Nc2ccccc2N=C1NC(=O)c1cccc(S(=O)(=O)NCc2ccccc2)c1	i
CC(C)(C)c1ccc(OCc2ccc(C(=O)N/N=C/c3ccc([N+](=O)[O-])cc3)o2)cc1	1.6
COc1ccc(-n2ncc3c(NCc4ccccn4)ncnc32)cc1	1.1
CCN=C(NCC)SC1CC(=O)N(c2ccccc2)C1=O (stereo unspecified)	1.9
COCC(=O)Nc1nc2ccc(S(C)(=O)=O)cc2s1	2.5
O=C(c1ccc(=O)n(Cc2ccccc2)n1)N1CCN(C/C=C/c2ccccc2)CC1	1.4
Cc1cccc(Oc2ncnc3oc(-c4ccccc4)cc23)c1C	i
CCOC(=O)N1CCN(C(=O)C2CC(c3ccccc3OC)=NO2)CC1 (stereo unspecified)	0.7
Cc1cc(C)cc(N2CCN(C(=O)N3CCOCC3)CC2)c1	i
CC1CCCN(S(=O)(=O)c2ccc(NC(=O)c3cccc(-n4cnnn4)c3)cc2)C1 (stereo unspecified)	3.0
OCCN1CN=C(Nc2nc3ccccc3o2)NC1	1.2
Oc1ccccc1-c1cc(C(F)(F)C(F)F)[nH]n1	1.1
COc1ccc(N2C(=NC(C)=O)SC3CS(=O)(=O)CC32)cc1OC (stereo unspecified)	i
Fc1ccccc1CSc1nncn1NC/C=C/c1ccccc1	i
N#C/C(=C(/O)CN1C(=O)c2ccccc2C1=O)c1nc2ccccc2[nH]1	i
CCn1c(SCC(=O)NCCOc2ccccc2)nc2ccccc2c1=O	0.7
CCC1(CC)C(=O)C(C)(C)C(=O)OC1c1cccs1 (stereo unspecified)	3.1
COc1ccc(CCNc2ncnc3nc[nH]c23)cc1OC	0.2
O=C1CCCN1CCCN1C(=O)N[C@@H](Cc2ccccc2)C1=O	i
C=CCn1c(O)c(C(C)=NCc2cc(OC)cc(OC)c2)c(=O)[nH]c1=O	i

Arranged by heavy-atom count (high to low): 5 of the compounds above.
SMILES	H5N1 antiviral
O=C(c1ccc(=O)n(Cc2ccccc2)n1)N1CCN(C/C=C/c2ccccc2)CC1	1.4
COc1ccc(-n2ncc3c(NCc4ccccn4)ncnc32)cc1	1.1
COc1ccc(N2C(=NC(C)=O)SC3CS(=O)(=O)CC32)cc1OC (stereo unspecified)	i
COCC(=O)Nc1nc2ccc(S(C)(=O)=O)cc2s1	2.5
Oc1ccccc1-c1cc(C(F)(F)C(F)F)[nH]n1	1.1

An excerpt of these results, field by field:
OCCN1CN=C(Nc2nc3ccccc3o2)NC1
  H5N1 antiviral: 1.2
C=CCn1c(O)c(C(C)=NCc2cc(OC)cc(OC)c2)c(=O)[nH]c1=O
  H5N1 antiviral: i
COc1ccc(-n2ncc3c(NCc4ccccn4)ncnc32)cc1
  H5N1 antiviral: 1.1
Cc1cccc(Oc2ncnc3oc(-c4ccccc4)cc23)c1C
  H5N1 antiviral: i

The main list resumes, starting five compounds before the break.
SMILES	H5N1 antiviral
CCn1c(SCC(=O)NCCOc2ccccc2)nc2ccccc2c1=O	0.7
CCC1(CC)C(=O)C(C)(C)C(=O)OC1c1cccs1 (stereo unspecified)	3.1
COc1ccc(CCNc2ncnc3nc[nH]c23)cc1OC	0.2
O=C1CCCN1CCCN1C(=O)N[C@@H](Cc2ccccc2)C1=O	i
C=CCn1c(O)c(C(C)=NCc2cc(OC)cc(OC)c2)c(=O)[nH]c1=O	i
Nc1ccc(Cc2nc3cc4ccccc4cc3[nH]2)cc1	3.1
Cc1cc(C)n2cc(CSc3nnnn3-c3ccccc3C)nc2n1	2.1
COc1ccc(N2CCN(C(CNS(=O)(=O)c3cc(F)ccc3F)c3cccnc3)CC2)cc1 (stereo unspecified)	3.0
Cc1ccc(N2C(=O)C(Cl)=C(NCCO)C2=O)c(C)c1	2.5
O=C(c1ccccc1Cl)N1CCN(c2ccccn2)CC1	0.2
Cn1c(CNc2ccc(Cl)cc2)nnc1SCc1ccccc1	i
N#CCc1nc(CSc2nc3ccccc3o2)cs1	0.3
CC(C)CN(CC(C)C)S(=O)(=O)N1CCC(C(=O)NCCN2CCOCC2)CC1	i
O=C(CN1CCN(c2ccccc2F)CC1)c1ccc2cc[nH]c2c1	i
O=C1N2c3ccccc3CCc3cccc(c32)C1(O)C(F)(F)F (stereo unspecified)	0.3
COc1ccc2[nH]cc(C(O)CN3CCN(c4ccccc4)CC3)c2c1 (stereo unspecified)	i
C/C=C/Cn1c(N(C)Cc2ccccc2)nc2c1c(=O)[nH]c(=O)n2C	2.5
O=C(c1cccs1)c1coc2ccc(O)cc12	0.0
CCN1CCc2c(C#N)c(N3CCOCC3)nc(N3CCOCC3)c2C1	1.4
CC(C)c1nccn1S(=O)(=O)c1cc(Cl)ccc1Cl	0.7
CCCOc1ccc(NC(N)=O)cc1OCCC	i
COc1ccc(O)c(/C=N\NC(=O)CCn2nnc3ccccc32)c1	i
C/C(=N\O)C1/C(=N/O)CC2C1C2(C)C (stereo unspecified)	0.6
O=C(CN1CCN(c2ccc(F)cc2)CC1)Nc1ccc(-n2cnnn2)cc1	i
c1ccc(N2CCN(Cc3ccsc3)CC2)nc1	0.2
O=C(O)CN1C(=O)SC(Nc2ccc(Cl)cc2)C1=O (stereo unspecified)	i
CCSCCNC(=O)c1cncc(Br)c1	i
COCCNC(=O)c1cc(-c2ccc(Cl)c(Cl)c2)on1	i
C=CCNc1nc(C)c(C(C)=O)cc1C#N	0.4
CC(NC(=O)c1ccncc1)C(C)(C)C (stereo unspecified)	0.7
CSc1nncn1/N=C/c1cc(Cl)ccc1F	i
COCCNC(=O)c1cc2sc3ccccc3c2s1	1.4
O=C(Nc1ccc2sccc2c1)c1ccc(Cl)s1	0.5
Cc1c(NC(=O)CN2CCN(c3ccccc3)CC2)c(=O)n(-c2ccccc2)n1C	0.9
COc1cccc(/C=N\n2c(C)nnc2C)c1OC	1.0
COc1ccc(-c2noc(CSc3nc4ccccc4c(=O)n3-c3ccccc3)n2)cc1OC	i
c1cncc(-c2nn3c(Cn4nnc5ccccc54)nnc3s2)c1	2.5
CCn1cc(S(=O)(=O)CC(=O)NC2CCCCC2)c2ccccc21	0.4
Cc1ccnc(NC(=O)CCC(=O)N(CC(=O)NCC2CCCO2)Cc2ccc(F)cc2)c1 (stereo unspecified)	0.2
Cc1occc1C(=O)NNC(=O)C(c1ccccc1)c1ccccc1	i
O=S(=O)(NCCCO)c1ccc2c(c1)Cc1cc(S(=O)(=O)NCCCO)ccc1-2	2.0
CC(NS(=O)(=O)c1ccc(CCC(=O)N2CCN(C)CC2)cc1)c1ccccc1 (stereo unspecified)	2.5
COc1ccc(S(=O)(=O)Nc2cc(Cl)ccc2OC)cc1	i
CCN(C(=O)COC(=O)c1ccccc1Nc1cccc(C)c1C)C1CCS(=O)(=O)C1 (stereo unspecified)	i
CCCN(CC1CC1)c1nc(N)c2c(N)nc(OC)cc2c1C#N	1.8
CC(=O)CCc1oc2ccc(NC(C)=O)cc2c1-c1ccc(C)o1	i
CCOC(=O)C1=C(C)N(c2ccccc2)C(=O)C1CC(=O)O (stereo unspecified)	i
CCOc1ccc(NC(=O)C2CCCN(S(=O)(=O)c3cccc4nsnc34)C2)cc1 (stereo unspecified)	0.5
O=C(COC(=O)c1cccc2ccccc12)Nc1ncc(C(F)(F)F)cc1Cl	1.5
Cc1cc(NCCCN2CCOCC2)n2nc(C)c(-c3ccc(F)cc3)c2n1	i
NC(=O)c1ccccc1OCC(=O)NC12CC3CC(CC(C3)C1)C2	0.0
Cc1nnc(NC(=O)COc2ccc3c(C)cc(=O)oc3c2)s1	1.8
CC(C)Oc1ccc(/C(O)=C2/C(=O)C(=O)N(CCN(C)C)C2c2ccco2)cc1 (stereo unspecified)	i
Cc1noc(NS(=O)(=O)c2ccc(NC(=O)CCC3CCCCC3)cc2)c1C	0.8
COc1cc(CNCc2cccs2)cc(Br)c1OC	2.3
CC1CCCC(C)N1NC(=O)c1ccc(Cl)c(S(N)(=O)=O)c1 (stereo unspecified)	0.5
Cc1cccc(NC(=S)Nc2ccc(Br)cc2)c1	i
CCN(CC)c1ccc(NC(=O)c2cc(Cl)ccc2OC)cc1	i
CCN1CCN(CCCNc2ncnc3nc[nH]c23)CC1	1.0
O=C(Nc1cccc(Br)c1)c1ccc(CSc2ccccc2)cc1	i
CCCn1c2ccccc2c2cc(C(=O)O)ccc21	0.5
CCc1cc[n+](-c2nc([O-])sc2C=O)cc1	0.5
CC1CC(C)CN(S(=O)(=O)c2ccc3c(c2)oc(=O)n3CC(=O)N2CCOCC2)C1 (stereo unspecified)	0.2
Cc1ccc(C2CC2c2n[nH]c(=S)n2-c2ccc(C)cc2)cc1 (stereo unspecified)	0.6
CCOCCc1nnc(NC(=O)C(CC)c2ccccc2)s1 (stereo unspecified)	0.2
Continuation.
SMILES	H5N1 antiviral
O=C(O)C1(c2cccc(Cl)c2)CCC1	i
CCCCNC(=O)OC(C)CNC(=O)Oc1cccc(C)c1 (stereo unspecified)	0.6
CCOC(=O)c1c(NC(=O)C2CCCO2)sc2c1CCC2 (stereo unspecified)	1.2
O=C(c1cccc(F)c1)N1CCc2ccccc21	0.1
COc1cccc(-c2cc(C(=O)Nc3cnn(Cc4ccccc4C)c3)no2)c1	i
COc1ccc(NC(=O)CSc2nccn2-c2ccccc2)c(OC)c1	i
CCOC(=O)c1ccccc1OCc1cc(/C=N/n2cncn2)ccc1OC	0.8
CCN1C(=O)c2ccccc2S(=O)c2ccc(C(=O)N3CCCCCC3)cc21 (stereo unspecified)	1.2
CCOC(=O)CNC(=O)Nc1ccccc1C(=O)OC	1.5
O=C1c2ccccc2NC(c2c(Cl)cccc2Cl)N1Cc1ccccc1 (stereo unspecified)	3.0
Cc1cc(C)nc(SCC(=O)NC2=NN=C(c3ccc(Br)cc3)CS2)n1	i
Cc1ccc(C)c(N2CCN(CCCNC(=O)Cn3cc4c(n3)CCCCC4)CC2)c1	i
COc1ccc2[nH]c(C)c(C(=O)CN3CCOCC3)c2c1	0.9
CCc1c(C)sc(NC(=O)c2cc(-c3cc(OC)ccc3OC)on2)c1C#N	i
O=C(Cc1cn2ccsc2n1)Nc1nc2c(s1)CCCC2	1.0
COc1ccc(S(=O)(=O)CCc2nnc(NC(=O)c3cccs3)s2)cc1	i
Cc1ccc(OC(=O)c2ccc(N3CCOCC3)c([N+](=O)[O-])c2)cc1	i
C(=N\n1cnnc1)/c1ccccn1	0.2
COc1ccc(CCNc2nnc(C)c(=O)[nH]2)cc1OC	i
O=C(c1nn(Cc2ccccc2)c(=O)c2ccccc12)N1CCc2ccccc2C1	0.9

Overlap with the part before: 2 compounds, followed by the next part.
SMILES	H5N1 antiviral
COc1ccc(CCNc2nnc(C)c(=O)[nH]2)cc1OC	i
O=C(c1nn(Cc2ccccc2)c(=O)c2ccccc12)N1CCc2ccccc2C1	0.9
CCC(Cc1ccccc1)NC(=O)CSc1ccsc1[N+](=O)[O-] (stereo unspecified)	2.9
CCn1c(=O)c2c(nc(SCc3ccccn3)n2C)n(C)c1=O	i
COc1ccc(C2c3sc(=O)[nH]c3SC3C4CCC(C4)C23)cc1 (stereo unspecified)	1.0
CC(=O)c1c(C(C)=O)c(C)n(-c2nc(-c3ccc(C)c(C)c3)c(C)s2)c1C	0.9
O=C(CCS(=O)(=O)Cc1ccccc1)NC1CCCCC1	i
COc1ccc(C(OC(=O)c2ccco2)C(=O)NCC2CCCO2)cc1 (stereo unspecified)	0.8
COC(=O)c1nn(-c2ccccc2)c(Cl)c1/C=N/OC(=O)c1ccc(Cl)c(Cl)c1	i
O=C(C(c1ccccc1)c1ccccc1)N1CCN(CC(O)COc2ccccc2)CC1 (stereo unspecified)	i
COC(=O)c1[nH]c2ccc(F)cc2c1NC(=O)Nc1ccc(OC)cc1	i
O=C1CC(Nc2ccc(N3CCOCC3)cc2)C(=O)N1c1cccc(C(F)(F)F)c1 (stereo unspecified)	i
CCn1c(SCC(=O)c2cc(C)n(C)c2C)nnc1-c1ccccc1	0.3
CCOC(=O)N1CCN(C(=O)CS(=O)(=O)c2cn(Cc3cccc(F)c3)c3ccccc23)CC1	i
Cn1ncc2c1ncn1nc(CCc3ccccc3)nc21	0.9
O=C1CN2C(=Nc3ccc(Cl)cc3C2c2ccccc2)CN1 (stereo unspecified)	0.1
CCOC(=O)c1cnc2nc(NCc3ccc(OCc4ccccc4)cc3)[nH]n2c1=O	0.3
COc1ccccc1-n1c(SCC(=O)NC2CCCCC2)nc2c(c1=O)SCC2	i
Cc1cc2c(c(=O)n1CCN(C)C)C(c1ccncc1)C(C#N)=C(N)O2 (stereo unspecified)	0.9
CC(C)NC(=O)COc1ccc(/C=N/NS(=O)(=O)c2ccccc2)cc1	1.0
O=C(c1ccc(-c2ccccc2)cc1)N1CCCC1	i
CC(C)Cn1c(=O)c(C(=O)NCc2ccccn2)c(O)c2ccccc21	0.3
COc1cccc(NS(=O)(=O)c2ccc(Br)s2)c1	1.6
COc1ccccc1-c1nnc(SCC(=O)Nc2nc(-c3ccccc3)cs2)n1C	1.2
O=C(O)CSC1c2ccccc2C(=O)N1c1ccccc1 (stereo unspecified)	0.5
O=C(CCC(=O)OC(C(=O)c1ccccc1)c1ccccc1)Nc1ccccc1 (stereo unspecified)	i
COc1ccccc1C(=O)N1CCN(C(=O)c2ccncc2)CC1	1.2
COc1ccccc1NC(=O)C1=C(C)Nc2nc(-c3cccs3)nn2C1c1cccc(O)c1 (stereo unspecified)	i
CCOc1ccc(C2C=C(c3ccc(C)cc3)Nc3ncnn32)cc1 (stereo unspecified)	i
Cc1cccc(NC(=O)c2cc(Cl)nc3ccccc23)c1	0.6
O=C(CNS(=O)(=O)c1cccc(C(F)(F)F)c1)Nc1ccccc1F	i
CCOC(=O)N1CCN(C(=O)C(CC(C)C)NS(=O)(=O)c2ccc3c(c2)oc(=O)n3C)CC1 (stereo unspecified)	1.6
CCC(CC)NC(=O)c1ccc2c(c1)OCCO2	0.2
O=C(Nc1ccc(Br)cc1F)c1ccc2c(c1)N(Cc1ccccc1)C(=O)CS2=O (stereo unspecified)	i
O=C(CN1C(=O)c2cccc3cccc1c23)NCc1cccnc1	0.2
CCNC(=O)C1CC(=O)OC12CCCCC2 (stereo unspecified)	i
COc1ccc2occ(C(=O)c3coc4ccc(O)c(CN(C)C)c34)c2c1	1.3
